Compound activity (PubChem BioAssay)
AID504770 = growth inhibition of E. coli YBA685, primary screen, V. cholerae RctB inhibitors | E. coli YBA685 rctB-dependent plasmid, OD600 growth, 3 h; active compounds read low | z-score (test concentration not listed) | 130,000 tested, 0.27% active;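 active = z-score under -2 on both plates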;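 also: wells of about 30 µL received 100 nL stock; score is relative to mean and SD of the test wells; the first replicate is given; strong numbers were not always called active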
CapD inh = Bacillus anthracis CapD inhibitors, primary screen, biochemical, fluorescence intensity. CapD gamma-glutamyltranspeptidase (Bacillus anthracis Ames Ancestor). purified CapD enzyme, fluorescence intensity read-out; active compounds read low; some hits fall short of the stated cut. z-score (concentration not given with the values). 140,000 tested, 0.23% active;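 active = z-score under -4 in either of two replicates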;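 also: stock transfer was 100 nL into about 40 µL; score is relative to mean and spread of the plate; one replicate is shown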
The depositor's hits bear a star; . = not tested or not shown; & = joins results of further samples.

| SMILES | AID504770 | CapD inh |
| --- | --- | --- |
| CCOc1cc(C=C2C(=O)OC(C)(C(C)(C)C)OC2=O)ccc1O (stereo not drawn) | 2.1 | -1.9 |
| Cc1cc(N2C(=O)CSC2c2cccnc2)ccc1Br (stereo not drawn) | . | -0.17 |
| CCCS(=O)(=O)c1c(C)c(C)n(Cc2ccc(C(F)(F)F)cc2)c1N | 0.85 | -1.5 |
| Cc1cccc(NC(=O)C2CCCCC2)c1C(=O)O | 0 | -2* |
| CC(O)[C@@]12CCCC[C@@H]1CC1C3CC=C4C[C@@H](O)CC[C@]4(C)C3CC[C@@]12C (stereo partly drawn) | . | -0.31 |
| CCN(CC)C(=O)c1sc2ncnc(N3CCc4ccccc4C3)c2c1C | . | -0.15 |
| Cc1cc(C)cc(NC(=O)/C(=C/c2cccc([N+](=O)[O-])c2)NC(=O)c2ccccc2Br)c1 | . | 0.26 |
| CC(=O)N1CCCCNC1=S | 1.4 | . |
| Cc1cc(C)c2c(n1)sc1c(=O)[nH]cnc12 | -0.8 | . |
| CCN(CC)C(=O)c1cc(Cl)c(=O)n(Cc2ccc(Cl)c(Cl)c2)c1 | . | 1 |
| O=C1CSCN1Cc1c(Cl)cccc1Cl | 1.1 | 0.36 |
| CNC(=O)Cn1ncc2c3ccccc3n(Cc3ccccc3F)c2c1=O | 0.35 | 0.055 |
| COC(=O)c1ccccc1NC(=O)c1ccc(Cn2cc(Cl)cn2)o1 | 1.6 | 0.74 |
| CCOC(=O)N1CCC2(CC1)CC(=O)c1cc(O)ccc1O2 | 1.6 | -0.48 |
| COC(=O)c1c(NC(=O)CSc2nnc3sc4ccccc4n23)sc2c1CCC(C)C2 (stereo not drawn) | . | -0.3 |

| SMILES | AID504770 | CapD inh |
| --- | --- | --- |
| COc1cc(/C=C2\C(C)=C(C#N)c3nc(N)c(C#N)c(C)c32)ccc1OCc1cccc(C(=O)O)c1 | . | 1.4 |
| COc1cccc(C(=O)Nc2ccc3oc(-c4cccc(I)c4)nc3c2)c1 | 0.4 | -0.28 |
| CC(=O)Oc1ccccc1-c1ccc2cccnc2n1 | . | 0.84 |
| CC(O)C(NS(=O)(=O)c1ccc(Cl)cc1)C(=O)OCc1nnc(-c2ccccc2)o1 (stereo not drawn) | -0.8 | . |
| Cc1ccccc1-c1nnc(C2CCC(c3ccccc3)CC2)o1 (stereo not drawn) | 0.15 | . |
| CN(C)c1ccc(/C=N/N2C(=O)C3C4C=CC(C4)C3C2=O)o1 (stereo not drawn) | -0.4 | 0.025 |
| Nc1cnn(-c2ccccc2)c(=O)c1Cl | 0.6 | 0.53 |
| CCC(NC(=O)OC1CCCCC1C)(C(F)(F)F)C(F)(F)F (stereo not drawn) | -0.75 | 0.25 |
| O=C1c2ccccc2C(=O)N1CN(C(=O)c1cccnc1)c1cccc(F)c1 | -0.25 | . |
| O=C(c1cccc(-n2cccc2)c1)N1CCC(c2nc3ccccc3s2)CC1 | 1.4 | . |
| CCOC(=O)C1=C(c2ccccc2)S/C(=C2/C(=S)C(C)(C)Nc3cc(OCC)ccc32)S1 | . | -0.9 |
| O=C(Nc1nnc(Sc2ccnc3cc(Cl)ccc23)s1)c1cccnc1Oc1ccccc1 | . | -0.12 |
| CCn1nccc1NC(=O)c1ccccc1 | -0.4 | 0.49 |
| Cc1c(/C=N/NC(=O)c2cncc(Br)c2)c2ccccc2n1C | -0.7 | 0.08 |
| N#Cc1c(-c2cccs2)oc(N)c1-c1ccc(Cl)cc1Cl | . | 66 |

| SMILES | AID504770 | CapD inh |
| --- | --- | --- |
| O=C(CSc1nnc2ccccn12)Nc1ccc2ccccc2c1 | -0.95 | -0.27 |
| Cc1nc2ccc3nc(NC(=O)c4ccc(S(=O)(=O)N5CC(C)CC(C)C5)cc4)sc3c2s1 (stereo not drawn) | . | 0.02 |
| CN(CCc1ccccn1)C(=O)c1ccccc1C(=O)O | -0.65 | 0.92 |
| COc1ccc(-n2ncc(NC(=O)NCc3cccs3)c2C)cc1 | 0.15 | -0.15 |
| CCOC(=O)c1c(O)c2cccc3c2n(c1=O)CC3 | 1.1 | 6.2 |
| Cc1cc(C(=O)CCC(=O)N2CCN(c3ncccn3)CC2)c(C)s1 | -0.7 | . |
| COc1cc([C@@H]2c3cc4c(cc3[C@H](O)[C@H]3COC(=O)[C@@H]23)OCO4)cc(OC)c1OC | 0.7 | . |
| N#Cc1c(N)nc(SCC(=O)c2ccccc2)c(C#N)c1-c1ccc(O)cc1 | . | 0.16 |
| NC(=O)C1=CN(C(=O)Nc2ccc(Cl)cc2)CCC1C(F)(F)F (stereo not drawn) | 1 | 0.82 |
| O=C(Cn1c(NCCO)nc2ccccc21)c1ccccc1 | 0.95 | -0.22 |
| O=C(c1ccco1)n1ccc(-c2ccccc2OCc2ccc(F)cc2)n1 | . | 16 |
| COc1ccc(N2CCN(CCNC(c3ccc(F)cc3)c3nnc(-c4ccccc4)o3)CC2)cc1 (stereo not drawn) | 0.65 | 0.02 |
| CCCCCNc1nc(-c2ccco2)c2c(c1C#N)CCCC2 | 0.15 | 10 |
| CN1C2CCC1CC(NS(=O)(=O)c1ccc(C#N)cc1)C2 (stereo not drawn) | -1.2 | -0.07 |
| CC1(C)CC(=O)C(C=NC(C)(C)C)=C(O)C1 | -0.05 | . |

| SMILES | AID504770 | CapD inh |
| --- | --- | --- |
| Cc1nc(S(=O)(=O)N(C)C2CCCCC2)cn1C | -0.45 | -1.6 |
| O=C1c2cccc3cccc(c23)C(=O)N1O | -0.8 | -1.8 |
| CS/C(N)=N/N=C/c1ccc(N(C)C)cc1 | . | 4.2 |
| CN(C)C(=O)NCc1ccc(S(N)(=O)=O)cc1 | -0.1 | 0.16 |
| CC(C)S(=O)(=O)c1cnc(-c2cnccn2)nc1N | -1.1 | 0.02 |
| Cn1c(=O)oc2cc(S(=O)(=O)N3CCC(C(=O)Nc4ccc(Br)cc4)CC3)ccc21 | 0.2 | -0.01 |
| C[n+]1c(-c2ccccc2)oc2ccc3[nH]ccc3c21 | -0.4 | -0.34 |
| COc1ccc(SCC(=O)Nc2ccccn2)cc1 | -1.1 | 0.28 |
| C=CCn1c(=O)n2ncnc2c2c3c(sc21)CCCC3 | -0.55 | 1.1 |
| Cc1ccc(S(=O)(=O)N2CCN(c3nc(-c4ccccc4)ns3)CC2)cc1 | -0.8 | 0.14 |
| O=c1c(Cl)c(Cl)cnn1Cc1cc(=O)n2ccsc2n1 | -0.65 | . |
| COC(=O)c1sccc1-c1ccc(-c2ccn(C(=O)c3ccc(Cl)cc3)n2)o1 | 0.3 | 12 |
| ClCC1Cc2cc(I)c(Cl)cc2O1 (stereo not drawn) | 0.5 | 0.11 |
| CCS(=O)(=O)N1Cc2ccccc2CC1C(=O)Nc1ccc(NC(C)=O)cc1 (stereo not drawn) | -0.05 | . |
| c1ccc2[nH]c(Cc3nc4ccccc4[nH]3)nc2c1 | -0.15 | -0.88 |

| SMILES | AID504770 | CapD inh |
| --- | --- | --- |
| Fc1ccc(C(c2nnnn2C2CCCC2)N(Cc2ccccc2)Cc2ccco2)cc1 (stereo not drawn) | -1.9 | . |
| CCOC(=O)Nc1nc2c(F)c(F)c(F)cc2s1 | -1.1 | -0.4 |
| Cc1ccc(-n2c(C(C)(C)C)cs/c2=N/c2ccccn2)cc1C | . | -0.23 |
| CC(=O)c1cc(Cl)ccc1OC(=O)c1c(-c2c(Cl)cccc2Cl)noc1C | . | 0.24 |
| Cn1cccc1Cc1nnc(SCC(=O)Nc2ccccc2)n1C | 2.8 | -1.9 |
| CCOC(=O)c1cnn(-c2ccc(Cl)nn2)c1/N=C/N(C)C | 0.15 | . |
| O=C1OCCC1Sc1nc2ccccc2n1-c1ccccc1 (stereo not drawn) | -0.6 | -0.46 |
| Clc1ccccc1OCCOc1ncnc2sccc12 | 1.6 | . |
| Cc1ccc(C(=O)N2CCN(S(=O)(=O)c3ccc(C)c([N+](=O)[O-])c3)CC2)cc1 | . | -0.36 |
| O=C(CN1CCN(c2ccccc2)CC1)N1CCCc2ccccc21 | -0.5 | -0.33 |
| Cc1ccc(CCOC(=O)N2CCN(c3ccccc3Cl)CC2)cc1 | . | 0.25 |
| CCOC(=O)C1=C(C)N=c2s/c(=C/c3ccc(OC(C)=O)c(OCC)c3)c(=O)n2C1c1ccccc1 (stereo not drawn) | . | -0.22 |
| COCCn1cnc2sc(C(=O)NC3CCCCC3)c(C)c2c1=O | . | 5.9 |
| CCS(=O)(=O)N1CCN=C1SCc1ccc(C(F)(F)F)cc1 | -0.35 | -0.16 |
| Cc1cc(C)n2nc(Nc3ccccc3)c(C(N)=O)c2n1 | -0.05 | 6.3 |

| SMILES | AID504770 | CapD inh |
| --- | --- | --- |
| Cc1ccc(CSc2nc3ccccc3c(=O)n2CCc2ccccc2)cc1 | -0.2 | 0.52 |
| O=C(NCCCN1CCOCC1)c1ccc2c(=O)n(-c3ccc(F)cc3)c(SCc3cccc(F)c3)nc2c1 | . | -0.82 |
| C(=NCc1ccco1)c1cn(-c2ccccc2)nc1-c1ccccc1 | 0.2 | 0.48 |
| COC(=O)c1ccccc1NC(=O)CSc1nc2ccc(N3C(=O)c4ccc([N+](=O)[O-])cc4C3=O)cc2s1 | . | 0.56 |
| O=C1C2C3C=CC(C3)C2C(=O)N1c1ccccn1 (stereo not drawn) | 0.3 | -0.4 |
| Cc1cc(C(=O)COC(=O)c2ccccc2NS(C)(=O)=O)c(C)n1C1CC1 | 0.4 | . |
| COc1c2c(cc3c1C(CC(=O)c1ccccc1)N(C)CC3)OCO2 (stereo not drawn) | 1.2 | . |
| OCCN/N=C/c1cccc(OC(F)F)c1 | -0.85 | . |
| CCOC(=O)c1ccc(NC(=O)C(Sc2ccccc2)c2ccccc2)cc1 (stereo not drawn) | 2.6 | -0.6 |
| Cc1ccccc1N=C(NO)c1cccnc1 | -1 | 0.03 |
| O=C1C=C2C=C[C@@H]3CC2(O1)[C@H]1CCCCN31 | . | -0.15 |
| CSc1nc2ccccc2n1N | 0.1 | -0.15 |
| CN(C)S(=O)(=O)c1cccc(COC(=O)C2=NNC(=O)CC2)c1 | -0.4 | . |
| COc1ccc(C(O)(C(=O)NN(C(=O)c2ccccc2)c2ccccc2C)c2ccc(OC)cc2)cc1 | . | 0.11 |
| NNC(=O)c1oc2nc(-c3ccccc3)cc(-c3ccco3)c2c1N | -0.2 | -1.6 |

| SMILES | AID504770 | CapD inh |
| --- | --- | --- |
| O=C(N/N=C/c1ccco1)c1ccc(CN2c3cccc4cccc(c34)S2(=O)=O)cc1 | -1.4 | . |
| O=C(CC(Nc1ccccc1)C(=O)O)c1ccccc1 (stereo not drawn) | 0.55 | . |
| CCOc1ccc(N2C(=O)C(CC(=O)Nc3ccccc3)N(CCN3CCN(C)CC3)C2=S)cc1 (stereo not drawn) | -0.65 | -0.53 |
| CC(C)(C)S(=O)(=O)c1cnc(N)nc1N | . | 0.09 |
| COc1ccc(CCNC(=O)c2c(Cl)cccc2Cl)cc1OC | . | 0.84 |
| COc1ccc(CNC(=O)C(NS(=O)(=O)c2cccc3nsnc23)c2ccccc2)cc1 (stereo not drawn) | 0.9 | -0.22 |
| CC(=O)Nc1ccc(S(=O)(=O)N(Cc2ccc(C(C)C)cc2)Cc2ccco2)cc1 | . | -0.59 |
| Cc1cc2c(cc1C)C(c1cccc(Cl)c1Cl)CC(=O)N2 (stereo not drawn) | . | -0.37 |
| Cc1ccc2oc(=O)n(CCc3noc(-c4cc(C)on4)n3)c2c1 | 0.4 | 0.46 |
| CP(=O)(Nc1cc(Cl)ccc1Cl)c1nc2c(s1)CCCC2 (stereo not drawn) | -0.55 | . |
| COc1ccc([C@@H]2CC(=O)c3c(O)cc(O)cc3O2)cc1O | . | -1.8&-0.08 |
| CC(Cl)COC(=O)N1CCN(c2ccccc2Cl)CC1 (stereo not drawn) | . | -1.2 |
| Cc1ccc(Nc2ncc(C(=O)NCCCN3CC(C)CC(C)C3)c3ccccc23)cc1Cl (stereo not drawn) | . | -0.4 |
| CSc1nc2c(sc3ccccc32)c(=O)n1CCCC(=O)NC1CCCCC1 | 0.3 | 0.21 |
| CCCOC(=O)Nc1cccc(C(=O)OCCC)c1 | -1 | -0.34 |

| SMILES | AID504770 | CapD inh |
| --- | --- | --- |
| CCc1cc2c(=O)[nH]cnc2s1 | 1.5&-1.2&1.4 | 2.2&-0.12 |
| O=C(NCCCN1CCOCC1)C1c2ccccc2Oc2ccccc21 | -0.5 | -0.19 |
| O=c1cc(-c2ccccc2Cl)c2c([nH]1)CCC2 | -0.35 | 28 |
| CC1(C)S[C@@H]2[C@H](NC(=O)Cc3ccccc3)C(=O)N2[C@H]1C(=O)O | 0 | -0.71&0.2 |
| CCCCCOC(=O)NNC(=O)/C=C/c1ccco1 | . | -0.22 |
| CC(O)Cn1c(NCc2ccccc2)nc2c1c(=O)n(C)c(=O)n2C (stereo not drawn) | -0.15 | . |
| CNC(=O)N(O)C1N(c2ccccc2)C(=S)SC1(C)C (stereo not drawn) | -0.5 | . |
| COc1ccc(C2Oc3ccccc3C3CC(c4ccc(C)o4)=NN32)cc1OC (stereo not drawn) | 0.35 | . |
| Clc1ccc(CSc2nnc(-c3ccccc3)c(-c3ccccc3)n2)cc1 | . | 0.48 |
| COc1ccc(-c2nn(C3CC(=O)C4OCC3O4)c(=S)n2C)cc1OC (stereo not drawn) | . | -0.34 |

Entries of single compounds, looked up by structure.
COc1ccc(C2Oc3ccccc3C3CC(c4ccc(C)o4)=NN32)cc1OC (stereo not drawn) is listed with AID504770 = 0.35; CapD inh = .
O=C(NCCCN1CCOCC1)C1c2ccccc2Oc2ccccc21 is listed with AID504770 = -0.5; CapD inh = -0.19

In another format: 3 of the compounds above
> CC1(C)S[C@@H]2[C@H](NC(=O)Cc3ccccc3)C(=O)N2[C@H]1C(=O)O
  AID504770 = 0
  CapD inh = -0.71&0.2

> CCCCCOC(=O)NNC(=O)/C=C/c1ccco1
  AID504770 = .
  CapD inh = -0.22

> CC(O)Cn1c(NCc2ccccc2)nc2c1c(=O)n(C)c(=O)n2C (stereo not drawn)
  AID504770 = -0.15
  CapD inh = .
